CapD inh: CapD enzyme inhibition; purified CapD enzyme, fluorescence intensity read-out; stronger effect = lower value; some hits fall short of the stated cut; z-score (test concentration not listed); hit rate 0.23% among 140,000; AID 492967;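 active means z-score under -4 in either of two replicates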;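 further: stock transfer was 100 nL into about 40 µL; score is relative to mean and spread of the plate; one replicate is shown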
AID504770: E. coli YBA685 growth inhibition, screen for V. cholerae RctB inhibitors; E. coli YBA685 rctB-dependent plasmid, OD600 growth, 3 h; stronger effect = lower value; hit rate 0.27% among 130,000; z-score (no concentration beside the values);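 active means z-score under -2 on both plates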;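 further: wells of about 30 µL received 100 nL stock; score is relative to mean and SD of the test wells; the first replicate is given; strong numbers were not always called active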
* hit, by the source's call; . = no result given. An excerpt, so the mix of outcomes need not match the whole.

Every second line gives: CapD inh | AID504770
- Clc1ccc(OCc2nc3ccccc3n2CN2CCOCC2)cc1
 : . | -0.95
- CCCCCC#CCCOC(=O)NC(Cc1c[nH]c2ccccc12)C(=O)OCc1ccccc1 (configuration not stated)
 : -0.79 | .
- CCOC(=O)c1[nH]c(C)c(/C=N/O)c1C
 : . | 0.5
- CSC1=N/C(=C\c2cccnc2)C(=O)N1c1ccccc1
 : 16 | -0.9
- Cc1ccccc1-c1nnn(CC(=O)NC(=O)NC(C)C)n1
 : . | -1.1
- N#Cc1c(SCC(N)=O)nc2c(c1-c1ccc(O)cc1)CCCC2
 : . | 0.1
- Cc1ccc(C2CCN(C(=S)NC(C)C)C2)cc1 (configuration not stated)
 : -0.67 | -0.6
- Clc1ccc(C2N(Cc3ccccc3)CCC3CCCCN32)cc1Cl (configuration not stated)
 : -0.3 | .
- Cc1cc(C)c(S(=O)(=O)n2c(SCC(=O)NC3CCCCC3)nc3ccccc32)c(C)c1
 : 0.17 | -0.35
- COC(=O)C1=C(N)OC2=C(C(=O)CC(c3ccccc3)C2)C1c1ccc(Br)cc1 (configuration not stated)
 : -0.93 | .

Later entries.
Every second line gives: CapD inh | AID504770
- Cc1c(/C=N/NC(=O)Cn2c(C(F)(F)F)nc3ccccc32)cc(C#N)n1C
 : . | -0.5
- CCOc1nc(C)c(/C=C/C(=O)O)c(OCC)n1
 : . | 0.2
- CCOC(=O)c1cnc(SCC(=O)Nc2ccccc2)nc1N
 : -0.02 | -1.4
- COc1ccc(C2Nn3c(nnc3-c3ccccc3)SC2C(=O)Nc2ccccc2)cc1 (configuration not stated)
 : -0.61 | 1.4
- CC(CN1CCCC1)OC(=O)COc1ccccc1 (configuration not stated)
 : -0.015 | -0.85
- O=C(c1cc2ccccc2oc1=O)N(Cc1ccc(F)cc1)C1CC1
 : . | 1.4
- CCOc1cc(/C=C(\C#N)c2nnc3n2CCCCC3)ccc1O
 : -0.68 | .
- O=C(Nc1cc(Oc2ccc3c(c2)CCC3)cc([N+](=O)[O-])c1)c1cnn2c1NC(c1ccco1)CC2C(F)(F)F (configuration not stated)
 : 0.11 | .
- Cn1nc(CC(=O)N2CCCN(S(=O)(=O)c3ccc(F)cc3)CC2)c2ccccc2c1=O
 : . | 0.95
- Cc1cccc(NC(=S)NC2CCCC2)c1
 : 0.72 | 0.85

(more compounds)
Every second line gives: CapD inh | AID504770
- COC(=O)c1ccc(CSc2nccc(=O)[nH]2)cc1
 : -0.43 | -0.55
- COc1ccccc1NC(=O)c1c(NC(=O)c2ccncc2)sc2c1CCCCC2
 : 1.3 | .
- CC12CC[C@H]3[C@@H](CCC4(O)C[C@H](O)CCC34/C=N/NC(=O)c3cncc(Br)c3)C1(O)CCC2C1=CC(=O)OC1 (some centres not stated)
 : -0.31 | .
- CC(C)(C)c1nn(-c2ccccc2)c2[nH]c(=O)c(CNc3ccc4c(c3)OCO4)cc12
 : . | -0.35
- COCCNC(=O)NC1CCCCC1
 : -0.03 | -0.55
- O=C(c1nccc2ccccc12)N1CCC(Cc2ccccc2)CC1
 : -0.18 | .
- O=C(NCc1nc(-c2ccc(Cl)cc2)no1)C1CCCCC1
 : -0.34 | 0.25
- Cc1cc(C)c(C#N)c(SC(C(=O)NC(C)(C)C)c2ccccc2)n1 (configuration not stated)
 : 0.16 | 2.7
- CCOc1ccc(C2Nc3ccccc3NC3=C2C(=O)CC(c2ccc(OC)cc2)C3)cc1OC (configuration not stated)
 : -0.91 | .
- O=C(Nc1ccc(N2CCCCC2)cc1)c1ccccc1
 : -1.2 | -0.5

Going on with the list:
Every second line gives: CapD inh | AID504770
- C=CCn1c(=O)c(C(=O)NC)c(O)c2cc(OC)c(OC)cc21
 : . | -0.15
- CCN(CC)c1cc(C)c2cc(NC(=O)/C=C/c3ccco3)ccc2n1
 : -0.46 | -0.5
- CCN1C(=O)c2ccccc2S(=O)(=O)c2ccc(C(=O)NC3CCCC3)cc21
 : 0.56 | -0.15
- O=C(Nc1ccc(N2CCCC2)cc1)c1ccc(Br)o1
 : . | 0.2
- CC(C)(C)NC(=O)COc1ccc(S(=O)(=O)N2CCOCC2)cc1
 : 0.3 | 0.9
- O=C(CCC(=O)NC1CCN2CCCc3cccc1c32)NC1CC1 (configuration not stated)
 : 2.6 | .
- CCC(C)NS(=O)(=O)c1ccc2c(c1)CC(=O)N2 (configuration not stated)
 : 0.44 | 0.45
- COc1ccc2c(c1)N(CCCS(=O)(=O)[O-])/C(=C/c1sc3ccccc3[n+]1C)S2
 : -0.2 | .
- c1cc2c(cc1Nc1nc(-c3ccc4c(c3)OCO4)cs1)OCCO2
 : . | 0.05
- CCC(C)C(NC(=O)C1CCC(C)CC1)C(=O)Nc1cc(OC)ccc1OC (configuration not stated)
 : -0.4 | -0.2

More compounds:
Every second line gives: CapD inh | AID504770
- COc1ccc(C(=O)Nn2c(SCC(=O)c3ccc(F)cc3)nc3ccccc3c2=O)cc1
 : 0.34 | .
- Cc1ccc(-c2nnc(SCCC(=O)N3CCOCC3)o2)cc1
 : . | -0.2
- CNc1nc2c(c(=O)n(C)c(=O)n2C)n1Cc1cccc(C)c1
 : 0.36 | 1.4
- Cc1cccc(C(=O)Nc2nccs2)c1
 : 0.39 | -3.1*
- O=C1CC(c2ccccc2)Sc2ccccc2N1 (configuration not stated)
 : 0.79 | 0
- CCS(=O)(=O)c1ccc(C(=O)Nc2ccccc2)c(Cl)c1Cl
 : -1.1 | .
- Cc1noc(C)c1COc1cccc(C(=O)N2CCN(c3ccccc3)CC2)c1
 : . | -0.25
- CCCN1CCN(C(=O)Cc2csc(-c3ccc(OC)c(OC)c3)n2)CC1
 : . | -1.3
- CCN(C(=O)CSc1nc(C)cc(C(F)(F)F)n1)c1ccccc1
 : -1.2 | 0.75
- C/C(=N\n1cnnc1)c1ccc2ccccc2c1
 : . | -0.6

(next part)
Every second line gives: CapD inh | AID504770
- Cc1nc2ccccc2n1CC(=O)O
 : 0.14 | -0.45
- COc1cc(-c2nc3ccccc3c(=O)n2NC(=O)COc2ccc(Cl)cc2Cl)cc(OC)c1OC
 : 0.54 | .
- O=C(OCC(=O)N1CCCCC1)c1c[nH]c(=O)[nH]c1=O
 : . | 0.2
- CCOC(=O)Cc1nnc(Nc2ccc(C)cc2C)c2ccccc12
 : -0.68 | .
- CC(C)(C)NC(=O)C(C(=O)c1ccccc1)n1ccccc1=O (configuration not stated)
 : -0.71 | -0.45
- O=C(N/N=C/c1ccc(C(F)(F)F)cc1F)c1ccc[nH]1
 : -1 | .
- COc1cc(C=C2C(=O)N(C)C(=O)N(C)C2=O)cc(Br)c1OCCOc1ccccc1
 : 0.35 | .
- Cc1cc(C(=O)Cn2cc(S(=O)(=O)N(C)C)ccc2=O)c(C)n1Cc1ccco1
 : . | 1.2
- Cc1ccc(N2C(=O)/C(=C\c3ccc4c(c3)OCO4)N=C2SCC(=O)N2CCN(C(=O)c3ccco3)CC2)cc1
 : . | 0.35
- Cc1sc2ncn(C)c(=O)c2c1-c1ccccc1
 : 1.6 | -0.5

(list continues)
Every second line gives: CapD inh | AID504770
- CCCCN(C)S(=O)(=O)c1ccc(C(=O)Nc2cccc3c2C(=O)NC3=O)cc1
 : . | -0.3
- O=C(COCc1nc2ccccc2c(=O)[nH]1)NCC1CCCCC1
 : . | -0.55
- O=S(=O)(/N=C/c1cc(Br)ccc1O)c1ccccc1
 : 0.25 | 1.3
- CCn1c(=O)c(=O)[nH]c2cc(C(=O)Nc3nc(CN4CCCCC4)cs3)ccc21
 : . | -0.35
- CC(C)n1cnnc1SCC(=O)Nc1ccc(F)cc1
 : . | 2.3
- C=C(C)c1cccc(C(C)(C)NC(=O)Nc2ncccn2)c1
 : . | -0.95
- Cc1noc(C)c1S(=O)(=O)NC(C)C(=O)O (configuration not stated)
 : . | -0.6
- N#C/C(=C(\O)CCl)c1nnc2n1CCCCC2
 : 0.52 | -0.3
- Cc1cc2c(=O)n(CC(=O)NCC(=O)N3CCC(C(N)=O)CC3)cnc2s1
 : -0.62 | 0.5
- CCn1c(CSc2nnc(COc3ccc(OC)cc3)n2-c2ccccc2F)nc2cc(C(=O)O)ccc21
 : . | -0.15

(more compounds)
Every second line gives: CapD inh | AID504770
- Cn1c(SCC(=O)c2ccc3c(c2)CCCC3)nc2ccccc2c1=O
 : 0.56 | 0.3
- CC(CCc1ccco1)NC(=O)Cn1ncc2ccccc21 (configuration not stated)
 : 21 | 0.8
- O=C(COc1ncn(-c2ccccc2)n1)N/N=C/c1cc(Br)ccc1O
 : 1.4 | .
- CCOC(=O)c1ccc(-c2ccc(/C=C3\SC(N=Nc4c(O)[nH]c5ccccc45)=NC3=O)o2)cc1
 : -0.34 | 2.4
- Cc1ccc(S(=O)(=O)NCc2ccc(/C=C(/C#N)C(=O)NCc3ccccc3)o2)cc1
 : . | 0
- Nc1nnc(C2=C(O)/C(=C/c3ccccc3)CC2)s1
 : . | 0.7
- O=C(C1Sc2nnc(-c3ccccc3)n2NC1c1ccccc1)N1CCCC1 (configuration not stated)
 : -0.16 | -0.65
- Cc1c(C(=O)O)sc2c1C(=O)NS2(=O)=O
 : . | 0.05
- COc1ccc(N2CCN(C(=O)c3ccc(C#CC(C)(C)O)cc3)CC2)cc1
 : -1.1 | -0.8
- O=C(CS(=O)(=O)c1ccc(C(F)(F)F)cn1)N/N=C/c1cccc(C(=O)O)c1
 : 0.57 | .

Carrying on:
Every second line gives: CapD inh | AID504770
- N#CC1=C(c2ccccc2)COC1=O
 : -0.04 | -1.2
- CCN(c1ccc(F)cc1)S(=O)(=O)c1ccc2[nH]cc(C(=O)NCC3CCCO3)c(=O)c2c1 (configuration not stated)
 : 9.8 | 0.3
- CCN(c1ccc(C(=O)CSc2nnc(C(F)(F)F)n2C)cc1)S(C)(=O)=O
 : . | -0.35
- O=C1Nc2cc(C(=O)N3CCN(c4ccccc4)CC3)ccc2Sc2ccccc21
 : 0.27 | 0.8
- CCOc1cc(C(=O)NCCc2nc3ccccc3[nH]2)cc(OCC)c1OCC
 : -0.38 | 1.3
- COc1ccc(-n2cnc3cc(C(=O)NCc4ccccc4OC)ccc32)cc1
 : -2 | -0.2
- CC(C)c1ccc(-c2nc(N3CCCCCC3)nc3n[nH]c(N)c23)cc1
 : -1 | 1.8
- CC(C)c1cc(NCCN2CCOCC2)n2c(nc3ccccc32)c1C#N
 : 1.9 | -0.05
- CCc1oc(C(=O)O)cc1CN(CC)CC
 : -0.54 | 0.15
- CC(C)N(C(=O)CN(C#N)c1nc(N(C)C)nc(N(C)C)n1)c1ccccc1
 : 0.05 | .

Next records:
Every second line gives: CapD inh | AID504770
- Cc1cc(C)c2c3n(nc2n1)C(=O)NC(C(F)(F)F)(C(F)(F)F)N3
 : -0.45 | -0.8
- Clc1ccc(Cn2ncc3c(N4CCCCC4)ncnc32)cc1
 : -0.87 | 0.5
- Cn1c(NCCO)nc2c(c1=O)C1(CCCCC1)Cc1ccccc1-2
 : 41 | .
- Nc1nc(CSc2nnnn2Cc2ccccc2)nc(N2CCOCC2)n1
 : -0.08 | .
- CCOC(=O)c1ccc(NC(=O)c2ccc(-c3ccc(F)cc3)o2)cc1
 : 66 | 1.3
- CCOC(=O)c1[nH]c(C(=O)O)c(CCN(CC)CC)c1C
 : 0.39 | -0.05
- CCCNC(=O)Nc1cc(C)ccn1
 : 0.64 | -1.1
- O=C(NCCO)c1nc2ccccc2s1
 : . | -0.65
- Cc1cn(C2C=CC(CO)O2)c(=O)[nH]c1=O (configuration not stated)
 : . | 1.9
- CCOC(=O)C1=C(C)N=c2s/c(=C/c3cccc([N+](=O)[O-])c3O)c(=O)n2C1c1ccc(OC)cc1 (configuration not stated)
 : 0.44 | .

Going on with the list.
Every second line gives: CapD inh | AID504770
- COc1ccc(S(=O)(=O)N(C)CC(=O)O)c2ccccc12
 : 0.73 | -0.05
- NC(=O)CSc1nc2[nH]ncc2c(=O)[nH]1
 : . | -1
- O=C(Cc1ccccc1)N1N=C(c2ccc(Br)cc2)CC1(O)C(F)(F)F (configuration not stated)
 : 0.11 | .
- O=C(C1CCCCC1)N1CCNCC1
 : -0.065 | .
- Cc1cc(C(=O)OC(C)C(=O)N2CCc3ccccc32)c2ccccc2n1 (configuration not stated)
 : . | -0.8
- O=C(NCc1cccs1)c1cccn2c(=O)c3c4c(sc3nc12)CCCC4
 : -0.19 | -0.35
- O=C(O)C1CC1C(=O)Nc1ccc(Oc2ccc(Cl)cc2C2CCCCC2)nc1 (configuration not stated)
 : -0.69 | 0.15
- COC(=O)c1cc(S(=O)(=O)N2CCC(C)CC2)c[nH]1
 : -0.11 | -1.5
- COC(=O)C(Cc1cn(C(c2ccccc2)(c2ccccc2)c2ccccc2)cn1)NC(=O)c1ccccc1COC(=O)c1ccccc1 (configuration not stated)
 : 0.045 | .
- O=C(CN1CCN(S(=O)(=O)c2ccc3[nH]c(=O)[nH]c3c2)CC1)N1CCCCCC1
 : . | -0.45

The results go on:
Every second line gives: CapD inh | AID504770
- Cn1c2ccccc2c2c1cc(C#N)c(=O)n2-c1ccc([N+](=O)[O-])cc1
 : 0.065 | .
- CCn1c(O)c(C=Nc2ccc(S(N)(=O)=O)cc2)c(=O)[nH]c1=S
 : -0.35 | 1.9
- CCN(CC)c1ccc(-n2c(C)cc(/C=C3/NC(=O)N(Cc4ccccc4F)C3=O)c2C)cc1
 : 5 | 0.05
- O=C(CSc1nccn1-c1ccccc1)c1ccc(Br)cc1
 : -0.03 | .
- COc1ccc2cc3cc(C(=O)NC4CCCC(C)C4C)oc3nc2c1 (configuration not stated)
 : 0.7 | -0.6

By substructure, those above with a thiophene ring, fused or not (five)
Every second line gives: CapD inh | AID504770
- COc1ccccc1NC(=O)c1c(NC(=O)c2ccncc2)sc2c1CCCCC2
 : 1.3 | .
- Cc1sc2ncn(C)c(=O)c2c1-c1ccccc1
 : 1.6 | -0.5
- Cc1cc2c(=O)n(CC(=O)NCC(=O)N3CCC(C(N)=O)CC3)cnc2s1
 : -0.62 | 0.5
- Cc1c(C(=O)O)sc2c1C(=O)NS2(=O)=O
 : . | 0.05
- O=C(NCc1cccs1)c1cccn2c(=O)c3c4c(sc3nc12)CCCC4
 : -0.19 | -0.35
